# MenB inh: blocks the Mycobacterium tuberculosis MenB enzyme; P9WNP5; MenB enzyme assay, absorbance read-out; some hits fall short of the stated cut; inhibition, %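 (about 12 µg/mL by stock and volumes)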; 0.43% of 100,000 active; AID 540299;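 active = mean of two replicates above 30%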;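 also: 0% = no compound and 100% = wells with inactive enzyme; the first replicate is given; strong numbers were not always called active; inactives centre near -10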
# Target sequence (P9WNP5 whole entry, looked up): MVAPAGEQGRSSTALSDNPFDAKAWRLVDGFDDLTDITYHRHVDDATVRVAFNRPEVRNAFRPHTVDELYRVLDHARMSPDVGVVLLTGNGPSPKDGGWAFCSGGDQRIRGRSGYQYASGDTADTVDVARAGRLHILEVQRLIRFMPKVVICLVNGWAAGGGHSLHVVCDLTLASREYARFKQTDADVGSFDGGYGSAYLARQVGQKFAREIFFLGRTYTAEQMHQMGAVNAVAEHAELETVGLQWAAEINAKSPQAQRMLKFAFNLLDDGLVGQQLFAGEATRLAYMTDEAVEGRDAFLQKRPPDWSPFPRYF
# Polio RdRp inh: inhibitors of poliovirus RNA polymerase binding and polymerization; P03300; poliovirus polymerase elongation, fluorescence polarization; hits give low values; % elongation, % (compound at 16.7 µg/mL); 0.66% of 150,000 active; AID 588519; in the data active = % elongation below about 90%; also: some results filed as inactive read as strong as hits
# Target sequence (P03300 1749-2209 limits assumed): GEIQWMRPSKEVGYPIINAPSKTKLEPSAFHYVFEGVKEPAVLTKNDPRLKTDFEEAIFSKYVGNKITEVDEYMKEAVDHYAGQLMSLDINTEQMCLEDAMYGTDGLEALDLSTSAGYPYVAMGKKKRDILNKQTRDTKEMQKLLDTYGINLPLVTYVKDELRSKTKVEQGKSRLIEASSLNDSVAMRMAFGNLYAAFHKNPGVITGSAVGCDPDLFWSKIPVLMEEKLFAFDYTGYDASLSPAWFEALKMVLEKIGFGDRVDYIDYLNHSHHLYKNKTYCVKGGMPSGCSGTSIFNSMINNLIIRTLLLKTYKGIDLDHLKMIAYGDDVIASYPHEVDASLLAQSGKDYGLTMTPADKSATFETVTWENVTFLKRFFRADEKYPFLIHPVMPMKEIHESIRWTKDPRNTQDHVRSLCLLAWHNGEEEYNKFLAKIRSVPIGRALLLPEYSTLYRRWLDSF
# Mtb MbtI inh: inhibitors of Mycobacterium tuberculosis siderophore enzyme MbtI | P9WFX0 | purified MbtI enzyme, fluorescence intensity read-out | inhibition, %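 (about 17 µg/mL by stock and volumes)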 | 0.89% of 100,000 active | AID 493033;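 active = above 50% in both replicates, above 80% if mildly self-fluorescent; inactive = the rest, strongly fluorescent compounds included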;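 also: 0% = mean of negative and 100% = mean of positive controls; one replicate is shown; some compounds called inactive have numbers as strong as hits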
# Polio RdRp inh intensity: further read-out of Polio RdRp inh, marked with its call; % elongation; measured here: total intensity read-out; formula for this scale not given here;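 total fluorescence in place of polarization; lower means less elongation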
# Active calls of the source: *; . = no result given; & = joins results of further samples.
(1) CC(=O)N1N=C(c2ccco2)CC1c1cc2cccc(C)c2nc1Cl (configuration not stated)
(2) COc1ccc(NC(=O)N2CCN(C3CCCCC3)CC2)c(OC)c1
(3) Cn1c(=O)oc2cc(S(=O)(=O)NCCC(=O)Nc3cccc(F)c3)ccc21
(4) CCN(CC)CCNc1nc2c(c(=O)n(C)c(=O)n2C)n1C(C)c1ccccc1 (configuration not stated)
(5) CCN(CC)C(=O)c1ccc[n+](CC(N)=O)c1
(6) NC(=O)Cn1c2[n+](c3ccccc31)CC(O)CS2 (configuration not stated)
(7) COc1ccc(SCC(=O)N(C2CCCCC2)C2CCS(=O)(=O)C2)cc1 (configuration not stated)
(8) CCc1cccc(NC(=O)NC(=O)Cn2nnc(C(=O)OC)c2C(=O)OC)c1

entry no.	1	2	3	4	5	6	7	8
MenB inh	-2	-21	-5	-20	0	15	-3	1
Polio RdRp inh	102	103	102	103	103	101	104	103
Polio RdRp inh intensity	105	100	106	104	110	102	105	106
Mtb MbtI inh	7	2	-11	-11	.	-9	21	-12

# A few values from the results shown:
# Polio RdRp inh intensity, `NC(=O)Cn1c2[n+](c3ccccc31)CC(O)CS2` (configuration not stated) stands at 102
# Mtb MbtI inh, `COc1ccc(NC(=O)N2CCN(C3CCCCC3)CC2)c(OC)c1` stands at 2
# Mtb MbtI inh, `Cn1c(=O)oc2cc(S(=O)(=O)NCCC(=O)Nc3cccc(F)c3)ccc21` stands at -11
# Mtb MbtI inh, `COc1ccc(SCC(=O)N(C2CCCCC2)C2CCS(=O)(=O)C2)cc1` (configuration not stated) stands at 21
# Mtb MbtI inh, `CCN(CC)CCNc1nc2c(c(=O)n(C)c(=O)n2C)n1C(C)c1ccccc1` (configuration not stated) stands at -11

# The listing picks up, starting 3 compounds before the break.
(6) NC(=O)Cn1c2[n+](c3ccccc31)CC(O)CS2 (configuration not stated)
(7) COc1ccc(SCC(=O)N(C2CCCCC2)C2CCS(=O)(=O)C2)cc1 (configuration not stated)
(8) CCc1cccc(NC(=O)NC(=O)Cn2nnc(C(=O)OC)c2C(=O)OC)c1
(9) CC(C)(C)S(=O)(=O)c1ccc(S(=O)(=O)C(C)(C)C)s1
(10) CCN1CCOC(CC(=O)Nc2cccc(OC)c2)C1=O (configuration not stated)
(11) CCOC(=O)Cc1nnc(C2CC(=O)N(c3ccccc3)C2)o1 (configuration not stated)
(12) N#CNC1=NCN(CC2CCCO2)CN1 (configuration not stated)
(13) CC1=NN(C(=O)Cc2ccccc2)C(O)(c2ccccc2)C1 (configuration not stated)
(14) CCOc1ccc(-c2cc3[nH]c(=O)n(-c4ccccc4C(F)(F)F)c(=O)c3s2)cc1
(15) C=CCNC(=S)N1CCc2sccc2C1c1ccc(OC)cc1 (configuration not stated)
(16) CCCc1cc(=O)[nH]c(SC/C(O)=C(\C#N)c2nc3ccccc3[nH]2)n1

entry no.	6	7	8	9	10	11	12	13	14	15	16
MenB inh	15	-3	1	-22	-25	-4	4	-23	-1	-30	-2
Polio RdRp inh	101	104	103	100	104	100	98	108	104	103	109
Polio RdRp inh intensity	102	105	106	107	108	104	103	100	110	114	123
Mtb MbtI inh	-9	21	-12	.	36	-2	-3	.	14	-8	-16

(17) O=C(COC(=O)c1cnccn1)c1ccc2c(c1)CCCC2
(18) CSC1=NC2(CC(c3cccs3)c3ccc(O)c(O)c3O2)CC(C)(C)N1 (configuration not stated)
(19) CC(OC(=O)Cc1coc2cc3c(cc12)CCC3)C(=O)NCc1ccc2c(c1)OCO2 (configuration not stated)
(20) O=C(NC1CCCC1)C(c1ccccc1)N(Cc1ccccc1F)C(=O)c1ccco1 (configuration not stated)
(21) O=C(NCCNC1CCCCC1)c1cccs1
(22) COc1ccc(OCC(=O)Nc2ccc(N3CCN(S(C)(=O)=O)CC3)cc2)cc1
(23) CN(C)c1ccc(CNCCC2(c3ccccc3)CCOC(C)(C)C2)cc1 (configuration not stated)
(24) CCOC(=O)c1cc(-c2ccccc2)n(CCNC(=O)OC(C)(C)C)c1C

entry no.	17	18	19	20	21	22	23	24
MenB inh	0	23	-38	28	-7	-6	5	-18
Polio RdRp inh	105	106	96	102	106	105	104	107
Polio RdRp inh intensity	106	104	98	101	109	102	102	101
Mtb MbtI inh	.	.	14	-1	.	-4	.	-4

(25) CCCOc1ccc(C(=O)Nc2ccc(NC(=O)c3cccs3)cc2)cc1
(26) CC1CCCCN1S(=O)(=O)c1ccc(NC(=O)CSc2nc3ccccc3o2)cc1 (configuration not stated)
(27) CCOC(=O)c1c(C)[nH]c(C)c1C(=O)CSC1=Nc2ccccc2C2CC=NN12 (configuration not stated)
(28) O=C(Cc1coc(-c2ccc(F)cc2)n1)Nc1ccccc1
(29) CC(=O)Oc1ccccc1C(=O)N1C(C)CCCC1C (configuration not stated)
(30) S=c1c(Cl)c(Cl)cnn1Cc1ccccc1
(31) O=C(Cc1cccs1)N1CCN(CCc2ccccc2)CC1
(32) C=CCNc1oc(-c2ccccc2)nc1C#N

entry no.	25	26	27	28	29	30	31	32
MenB inh	-12	-67	23	-10	-11	-50	4	7
Polio RdRp inh	100	105	104	104	102	67*	99	99
Polio RdRp inh intensity	100	101	108	104	101	71*	101	100
Mtb MbtI inh	3	-4	3	6	-25	.	-15	106

(33) CC(c1ccccc1)n1c(CCCNC=O)nc2ccccc21 (configuration not stated)
(34) O=C(/C=C/c1ccccc1)NC(=O)c1ccccc1O
(35) Cn1c(C(C#N)C(=O)Cc2cccc3ccccc23)nc2ccccc21 (configuration not stated)
(36) O=c1/c(=C\c2cccs2)sc2nc3ccccc3n12
(37) Cc1ccc(NC(=O)CSc2n[nH]c(=O)n2CC2CCCO2)cc1C (configuration not stated)
(38) COc1ccc(CN2C(=O)Cc3c2nc(N)c2c(N)nc(N4CCOCC4)c(C#N)c32)cc1
(39) COc1ccccc1OC(=O)C1CC(=O)N(c2ccc(Cl)cc2)C1 (configuration not stated)
(40) COC(=O)c1cccc(NC(=O)COC(=O)c2ccco2)c1

entry no.	33	34	35	36	37	38	39	40
MenB inh	-19	-34	.	6	9	-44	-19	-27
Polio RdRp inh	101	103	100	102	101	111	102	102
Polio RdRp inh intensity	102	99	100	102	103	117	102	101
Mtb MbtI inh	4	22	-7	13	5	-102	0	0

(41) CCOC(=O)c1c(NC(=O)Cn2nnc3ccccc32)sc2c1CCC(C)C2 (configuration not stated)
(42) O=C(O)C1CSC2c3ccccc3C(=O)N12 (configuration not stated)
(43) Cc1ccc(OCCn2c(C(O)c3ccccc3)nc3ccccc32)cc1 (configuration not stated)
(44) N#Cc1c(N)n(-c2ccccc2)c2nc3ccccc3nc12
(45) Cc1ccsc1C(=O)Oc1cccc(F)c1
(46) CC(C)n1c(SCC(=O)Nc2ccccc2Cl)nc2cc(Cl)ccc21
(47) CSc1nsc(SCC#N)n1
(48) O=C(NCc1ccccc1)N1CCC(CN2CCCCC2)CC1

entry no.	41	42	43	44	45	46	47	48
MenB inh	0	39*	-26	.	-12	-35	-5	-13
Polio RdRp inh	99	101	104	100	102	105	94	102
Polio RdRp inh intensity	100	100	106	105	99	111	104	106
Mtb MbtI inh	11	-4	-13	-8	-10	-12	16	-8

(49) NC(=O)c1ccccc1OCc1cn2cc(Cl)ccc2n1
(50) CCN(CC)C(=S)SC1CC(=O)N(c2ccc(S(=O)(=O)NC(C)=O)cc2)C1=O (configuration not stated)
(51) O=C(c1ccc(CS(=O)(=O)c2ccc(Br)cc2)o1)N1CCC2(CC1)OCCO2
(52) CC(=O)N1C(=S)NC(=O)C1c1ccccc1 (configuration not stated)
(53) CCCn1cnc2sc(C(=O)O)c(C)c2c1=O
(54) CC1=[N+]([O-])C(C)(C)C(c2ccc(C)o2)=[N+]1[O-]
(55) N#CNC(=Nc1cccc(Cl)c1)Oc1ccccc1
(56) CN(C)CCCn1c(N)c2c3c(sc2nc1=O)COC(C)(C)C3

entry no.	49	50	51	52	53	54	55	56
MenB inh	-7	-24	7	-8	11	-20	10	-10
Polio RdRp inh	100	104	99	99	102	103	104	102
Polio RdRp inh intensity	101	106	96	94	101	106	107	101
Mtb MbtI inh	23	.	10	-1	22	16	.	-35

(57) O=C(O)CSCC(=O)Nc1ccccn1
(58) CCOC(=O)NC1c2ccccc2Sc2ccc(Cl)cc21 (configuration not stated)
(59) CCc1ccc(N(C(C)=O)c2nc(CSc3nnc4n3CCCCC4)cs2)cc1
(60) N=c1c2c(-c3ccccc3)c(-c3ccccc3)oc2ncn1CCN1CCOCC1
(61) COc1cc(S(=O)(=O)N2CCCCC2)ccc1N=Cc1c(C)[nH]n(-c2ccccc2)c1=O
(62) O=C(NCCN1CCN(c2nccc(C(F)(F)F)n2)CC1)c1ccc(Cl)cc1
(63) COc1cc2c(cc1OC)CN(C(=S)NCCCN1CCOCC1)CC2
(64) O=C(Nc1ccc2c(c1)OCCCO2)c1cn(-c2ccccc2)nc1-c1cccs1

entry no.	57	58	59	60	61	62	63	64
MenB inh	-13	-13	-8	-17	-6	-17	-10	-25
Polio RdRp inh	103	109	101	101	99	109	100	107
Polio RdRp inh intensity	102	111	104	102	101	107	102	112
Mtb MbtI inh	-2	.	-12	-336	-1	-1	-5	39

(65) CC1C=CC(C)C(C(=O)O)C1C(=O)O (configuration not stated)
(66) O=C(O)c1cccc(Oc2ncccn2)c1
(67) O=S(=O)(c1cccc(C(F)(F)F)c1)N1CCC(N2CCCCC2)CC1
(68) CC(=O)N1CCN(C(=O)CSc2nc(-c3ccccc3)c(-c3ccccc3)[nH]2)CC1
(69) CCCCC1CCC(C(=O)Nc2nonc2C)CC1 (configuration not stated)
(70) COc1ccc(OC)c(S(=O)(=O)NCc2cn3ccccc3n2)c1
(71) O=C(O)c1ccc(Cn2c(SCc3ccccc3F)nc3ccncc32)cc1
(72) O/N=C/C1=CC(CC(O)CN2CCOCC2)c2ccccc21 (configuration not stated)

entry no.	65	66	67	68	69	70	71	72
MenB inh	-22	-30	-25	3	-17	16	3	-14
Polio RdRp inh	99	102	105	103	103	101	98	.
Polio RdRp inh intensity	102	100	99	101	101	112	94	.
Mtb MbtI inh	-183	-6	-7	-12	-10	0	-11	21

(73) CN(C(=O)CSc1nc2ncccc2[nH]1)C1CCCCC1
(74) Cc1cc(C)cc(NC(=O)CN2CCC(NC(=O)Cc3ccccc3)CC2)c1
(75) COC(=O)c1c(C)oc(C)c1S(=O)(=O)N1CCC(O)(c2ccc(Cl)cc2)CC1
(76) O=C(Cn1c(CC(=O)N2CCCC2)nc2ccccc21)NCc1ccccc1
(77) COC(=O)CCn1cc(F)c(N)nc1=O
(78) CC(=O)OC1OCCOC1NC(=S)Nc1cccc(C(F)(F)F)c1 (configuration not stated)
(79) O=S(=O)(c1ccc2c(c1)Cc1ccccc1-2)N1CCOCC1
(80) O=C(NCC1CCCCC1)c1ccc2c(c1)OCCO2

entry no.	73	74	75	76	77	78	79	80
MenB inh	-15	4	-9	-6	-1	-7	-49	13
Polio RdRp inh	100	99	103	101	104	101	103	100
Polio RdRp inh intensity	105	99	97	104	102	103	100	105
Mtb MbtI inh	12	1	11	8	.	-4	-6	29

(81) CC(C)(C)N1CCN(C(C)(C)C)C1=O
(82) COC(=O)c1cn(CC(=O)N2CCCCC2C)c2ccccc12 (configuration not stated)
(83) COC(=O)C1=C(O)/C(=C\c2ccc(CNS(=O)(=O)c3ccc(Br)cc3)o2)N=C1C
(84) Cc1cc(C)nc(SCC(=O)OCC(=O)c2ccc3c(c2)OCO3)n1
(85) N#CCNC(=O)c1sc2ccccc2c1Cl
(86) CC(C)N(C(=O)Cn1nnc2ccccc21)C(C(=O)NCc1ccco1)c1ccccc1 (configuration not stated)
(87) CN(C)N=Nc1ccc(S(N)(=O)=O)cc1
(88) O=C(NCCCN1CCN(c2ccc(F)cc2)CC1)c1cccn2c(=O)c3ccccc3nc12

entry no.	81	82	83	84	85	86	87	88
MenB inh	-21	1	-83	6	11	-11	-9	4
Polio RdRp inh	100	100	105	103	101	101	106	103
Polio RdRp inh intensity	104	107	113	101	100	102	100	107
Mtb MbtI inh	-2	.	5	4	-1	-9	10	2

(89) CN1C(=O)C(=Cc2ccc(O)cc2)C(=O)N(C)C1=S
(90) NC(=O)C1(C(N)=O)CCC1
(91) Cc1ccc(-c2ccc(C#N)c(=O)n2CC(=O)N(C)C)cc1
(92) CCOc1ccccc1NC(=O)COC(=O)C1CCC(=O)N1 (configuration not stated)
(93) CCc1c(C)nc(N2CCOCC2)[nH]c1=O
(94) CCc1ccc(/C=C2/C(=O)N(C)c3ccccc32)cc1
(95) Cc1[nH]c2ccccc2c1/C=C(\C#N)C(=O)NCc1ccco1
(96) CC(C)C/C(=N\O)c1cn(C)c2ccccc12

entry no.	89	90	91	92	93	94	95	96
MenB inh	-141	5	-45	-17	-12	-12	-194	-22
Polio RdRp inh	100	99	102	106	102	104	101	101
Polio RdRp inh intensity	98	96	102	110	97	102	106	106
Mtb MbtI inh	24	-6	60	0	-6	2	-4	-10

(97) Cc1c(C(=O)N2CCCC2)sc(NC(=O)c2cccs2)c1C#N
(98) O=C(Cn1c(-c2cccs2)cc2ccccc21)NCCC1=CCCCC1
(99) O=C(NCCCn1ccnc1)c1cc2ccccc2oc1=O
(100) O=C1CNC(=S)N1c1ccccc1
(101) CCOc1ccc(-n2c(O)c(/C=N/Nc3nc(C)cc(C)n3)c3ccccc3c2=O)cc1
(102) CC(=O)NC(NC(C)=O)c1ccc2c(c1)OCO2

entry no.	97	98	99	100	101	102
MenB inh	-36	-4	.	-19&-3	-32	31*
Polio RdRp inh	106	100	104	104&101	106	102
Polio RdRp inh intensity	105	102	108	99&102	101	103
Mtb MbtI inh	.	-89	20	5	9	-5

# Compound activity (PubChem BioAssay)
